VACV E9 pol inh – vaccinia E9 polymerase processive synthesis inhibition; in vitro processive DNA synthesis, absorbance read-out; stronger effect = lower value; some inactives read as strong as hits; normalized absorbance, % (test concentration not listed); actives 0.94% (n = 46,000); AID 493162;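 active = replicate mean up to 90% and picked by the depositor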;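 note: 100% = median of the test wells of a plate; 100 nL library stock went into each well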
The depositor's hits bear a star.

SMILES	VACV E9 pol inh
O=C(O)C1CCCCC1C(=O)Nc1cccc(C(F)(F)F)c1 (stereo unspecified)	92.3
COC(=O)C1Cc2c([nH]c3ccccc23)C(c2ccc(Cl)cc2)N1 (stereo unspecified)	104.5
CC(C)CCNC(=O)c1cccn2c(=O)c3cc4ccccc4cc3nc12	99.3
O=C1OC(C2CCCCC2)=N/C1=C\c1ccccc1	100.6
CC1OC1P(=O)(O)O (stereo unspecified)	100.1
O=c1c2ccccc2c2ccccc2c(=O)n1Cc1cccnc1	99.9
COc1ccc(CNC(=O)C2C(Oc3ccc(Cl)cc3Cl)C(=O)N2c2cccc(C)c2C)cc1 (stereo unspecified)	103.9
NC1=Cc2ccccc2CN1c1ccccc1Cl	99.9
O=C(N/C(=C\c1cccnc1)C(=O)N1CCCCC1)c1ccccc1	100.7
CN(C)CCC(O)c1ccc2c(c1)OCCCCO2 (stereo unspecified)	121.3
Cc1ccsc1C=Nc1ccc(Cl)cc1C(=O)c1ccccc1	94.6
CC1(C)CCCC2=C1CC(C(=O)O)C(C(=O)NCc1cccnc1)C2 (stereo unspecified)	104.9
Cc1ccccc1CS(=O)(=O)Cc1ccc(C(=O)NC2CC2)o1	89.2
COc1ccccc1NC(=O)c1ccc(C)cc1	90.8
COCCN1Cc2cccc(C(=O)NC(C)C34CC5CC(CC(C5)C3)C4)c2C1=O (stereo unspecified)	100.0
Cc1ccc(C(=O)OCC(=O)N(C)c2ccccc2)c(O)c1	99.9
Cc1cc(C)cc(C(=O)N2CC(C)CC(C)C2)c1 (stereo unspecified)	98.4
COc1ccc(S(=O)(=O)n2nc(OC(=O)C(C)(C)C)cc2N)cc1	101.2
O=c1[nH]c2ccccc2c(=O)n1CCc1ccccc1	96.9
CCC1CCCCN1C(=O)COC(=O)c1cccnc1Cl (stereo unspecified)	110.0
O=c1[nH]c(=S)[nH]cc1S(=O)(=O)c1ccc(F)cc1	99.5
C=CCNc1scc(-c2ccccc2)[n+]1CC=C	104.0
COc1ccc(C=Nc2ccc(C34CC5CC(CC(C5)C3)C4)cc2)c(OC)c1OC	94.0
O=C(CCS(=O)(=O)c1cccc2nsnc12)NC(c1ccccc1)c1ccccc1	106.3
O=C(CSC1N=C2C=CC=CC2O1)c1ccccc1 (stereo unspecified)	100.1
Cc1ccc(C(=O)NC2CC(C)(C)NC(C)(C)C2)c(C)c1	101.9
CCN1C(=O)c2cccc3c(NC(=O)c4ccco4)ccc1c23	95.3
O=C1CCCCCN1C(=O)c1ccc(Cl)cc1	96.2
CCn1c(=O)c2cc(C(=O)NCCCN3CCCCCC3)sc2c2ccccc21	59.8
COC(=O)c1ccc(COc2cccc3c2CCN(Cc2ccccc2)C3=O)o1	99.9
COC(=O)C(C1CCS(=O)(=O)C1)S(=O)(=O)c1ccccc1 (stereo unspecified)	91.8
c1ccc2c(c1)ncn2CCN1CCCCC1	100.2
CC(=O)N(CCc1ccc(C)[n+]([O-])c1)c1ccccc1	100.0
O=C(NCc1cccs1)c1ccc2c(c1)N(Cc1ccccc1)C(=O)CS2	107.1
COc1ccc(NC2c3ccccc3C(=O)N2c2ccc(Cl)cc2)cc1 (stereo unspecified)	103.3
Cc1cc2cc(CNC(=O)C3CC3)ccc2n1C	99.8
Cc1ccc(NC(=O)c2ccc(-c3ccccc3)cc2)nc1	100.4
COc1ccccc1CNC(=O)c1ccc2c(c1)N(Cc1ccc(F)cc1Cl)C(=O)CS2	101.6
COc1ccc(NC(=O)C2CCC(Cn3c(=S)[nH]c4ccsc4c3=O)CC2)cc1 (stereo unspecified)	100.4
Cc1ccc(OCc2nc(C#N)c(NCCN(C)C)o2)cc1	103.2
O=c1[nH]c(=S)c2c(n1N1CCOCC1)CCC2	100.7
COC(=O)c1c[nH]n2c(=O)c(C(C)C)c(C)nc12	95.3
CC(C)(C)c1cc(C(=O)O)n[nH]1	93.9
CC(C)Cn1c(=S)[nH]c2ccccc2c1=O	100.0
Cc1ccc(NC(=O)c2ccc(S(=O)(=O)N3CC(C)CC(C)C3)cc2)c(C(=O)c2ccccc2)c1 (stereo unspecified)	100.7
COc1cc(CCC(=O)NC2CCCCC2)cc(OC)c1OC	106.1
O=C(CCNS(=O)(=O)c1ccc(Br)cc1)NC1CCCC1	97.0
COc1ccc(S(=O)(=O)c2c(C(=O)c3ccccc3)cnc3cc(OC)c(OC)cc23)cc1	84.5
N#Cc1c(-c2ccccc2)nc2n1CCS2	100.5
C=CCSc1n[nH]c(=O)n1-c1ccc(Cl)cc1	99.4
c1ccc(Nc2nc3ccccc3o2)cc1	101.7
COc1ccc(C2=NN(CC(=O)N3CCCC3)C(=O)CC2)cc1	97.4
CN1C2CC(OC(=O)[C@H](CO)c3ccccc3)C[C@H]1CC2O (stereo partly specified)	100.5
CCOC(=O)c1cnn(-c2ncnc3sc4c(c23)CCCC4)c1N	99.9
CC1CCN(S(=O)(=O)c2cnc[nH]2)CC1	104.4
O=C(O)c1ccccc1NS(=O)(=O)/C=C/c1ccccc1	95.1
COc1ccc(-c2cc(C(=O)NCC(C)C)no2)cc1OC	102.8
O=C(O)CCCSc1ccc(Cl)cc1	102.9
O=C1Cc2ccccc2N1c1ccccc1	87.6
C[N+]1(CCOC(=O)C2(c3ccccc3)CCCC2)CCCCC1	100.0
The list continues.
SMILES	VACV E9 pol inh
Cn1c(C(=O)O)c(CC(=O)Nc2cnc3ccccc3c2)c2ccccc21	98.0
O=C(CSc1ccccn1)N1CCN(S(=O)(=O)c2ccccc2)C1	101.6
Cc1cc(SCC(=O)NN)c(C)cc1Cl	93.8
O=C(O)CCCc1c(-[n+]2ccccc2)[nH]c2ccccc12	102.3
Cc1ccc(SCC(=O)N2CCCCC2)cc1	98.8
COc1ccc(OC)c(S(=O)(=O)N2CCCC2)c1	99.3
O=C(c1ccc(CN2CCc3ccccc3C2)cc1)N1CCCCCC1	101.2
Cc1ccccc1C(=O)N1N=C(c2ccc(Br)cc2)CC1c1nc2ccccc2[nH]1 (stereo unspecified)	100.2
Cc1ccc(Cl)cc1N1CCN(CCCNC(=O)Cn2ncc3ccsc3c2=O)CC1	85.3
FC(F)(F)c1cnc(-n2ccc3ccccc32)c(Cl)c1	95.3
Cc1onc(-c2ccccc2)c1CNC(=O)NC1CCN(C(=O)OCc2ccccc2)CC1	101.4
Cc1ccc(-c2ccn(-c3ccc(C)c(Cl)c3)c(=S)n2)cc1	89.8
O=C(Nc1ccc(S(=O)(=O)N2CCc3ccccc32)cc1)c1ccccc1	92.7
COc1ccc(C=C2C(=O)NC(=O)NC2=O)cc1	100.7
O=P(O)(c1ccccc1)c1nc2c(s1)CCCC2	99.5
Cc1nn(C)c(C)c1NC(=O)Nc1ccccc1	73.3
Cc1ccc(NC(=O)C2C(c3ccccc3)C=CC(c3ccccc3)C2C(=O)O)cc1C (stereo unspecified)	100.2
O=C(/C=C\c1ccccc1)Nc1c(-c2cccs2)nc2ccccn12	100.9
O=C(CCSCc1ccccc1F)N1CCc2ccccc21	90.7
c1ccc(CCn2nnc3ccccc32)cc1	99.2

Some of the entries above in a different format:
mol | VACV E9 pol inh
CC1CCN(S(=O)(=O)c2cnc[nH]2)CC1 | 104.4
O=C(O)c1ccccc1NS(=O)(=O)/C=C/c1ccccc1 | 95.1
COc1ccc(-c2cc(C(=O)NCC(C)C)no2)cc1OC | 102.8
O=C(O)CCCSc1ccc(Cl)cc1 | 102.9
O=C1Cc2ccccc2N1c1ccccc1 | 87.6
C[N+]1(CCOC(=O)C2(c3ccccc3)CCCC2)CCCCC1 | 100.0
Cn1c(C(=O)O)c(CC(=O)Nc2cnc3ccccc3c2)c2ccccc21 | 98.0
O=C(CSc1ccccn1)N1CCN(S(=O)(=O)c2ccccc2)C1 | 101.6
Cc1cc(SCC(=O)NN)c(C)cc1Cl | 93.8
O=C(O)CCCc1c(-[n+]2ccccc2)[nH]c2ccccc12 | 102.3
Cc1ccc(SCC(=O)N2CCCCC2)cc1 | 98.8
COc1ccc(OC)c(S(=O)(=O)N2CCCC2)c1 | 99.3
O=C(c1ccc(CN2CCc3ccccc3C2)cc1)N1CCCCCC1 | 101.2
Cc1ccccc1C(=O)N1N=C(c2ccc(Br)cc2)CC1c1nc2ccccc2[nH]1 (stereo unspecified) | 100.2
Cc1ccc(Cl)cc1N1CCN(CCCNC(=O)Cn2ncc3ccsc3c2=O)CC1 | 85.3
FC(F)(F)c1cnc(-n2ccc3ccccc32)c(Cl)c1 | 95.3
Cc1onc(-c2ccccc2)c1CNC(=O)NC1CCN(C(=O)OCc2ccccc2)CC1 | 101.4
Cc1ccc(-c2ccn(-c3ccc(C)c(Cl)c3)c(=S)n2)cc1 | 89.8
O=C(Nc1ccc(S(=O)(=O)N2CCc3ccccc32)cc1)c1ccccc1 | 92.7
COc1ccc(C=C2C(=O)NC(=O)NC2=O)cc1 | 100.7
O=P(O)(c1ccccc1)c1nc2c(s1)CCCC2 | 99.5
Cc1nn(C)c(C)c1NC(=O)Nc1ccccc1 | 73.3
Cc1ccc(NC(=O)C2C(c3ccccc3)C=CC(c3ccccc3)C2C(=O)O)cc1C (stereo unspecified) | 100.2

Additional results
SMILES	VACV E9 pol inh
COc1cc(/C=N/c2oc(C)c(C)c2C#N)cc(Br)c1O	100.2
CCOc1cc2oc(=O)cc(C)c2cc1Cl	99.8
Cc1ccccc1Cn1c2ccccc2c2cnn(CC(=O)N3CCCC3)c(=O)c21	98.9
CCOC(=O)c1cc(-c2ccccc2)sc1N	85.6
COC(=O)CNC(c1ccccc1)c1cc(Br)ccc1NC(=O)c1ccccc1Cl (stereo unspecified)	100.5
COc1ccccc1Nc1ncnc2ccccc12	95.3
C=CCn1c(-c2ccco2)nn(C2CC(O)(O)C3OCC2O3)c1=S (stereo unspecified) (tested in a mixture with another compound)	99.9
CCOC(=O)C1(CCC#N)C(=O)C=C(c2ccc(OC)cc2)CC1c1ccc2ccccc2c1 (stereo unspecified)	100.7
CCc1nc2ccccc2n1CCC(N)=O	100.3
COc1ccc(CC(CC(=O)O)C(=O)O)cc1 (stereo unspecified)	99.7
O=C(Cc1ccccc1)OCc1nc2ccccc2s1	97.9
O=C(COn1c(=O)n(COC(=O)c2ccccc2)c2ccccc21)c1ccccc1	100.3
COc1ccc(-n2c(-c3ccccc3)csc2=NC(=O)c2ccccc2)cc1	101.9
COc1ccc(CC2CC3CCN2CC3)cc1 (stereo unspecified)	104.9
CC(C)/C(=N/O)c1ccccc1	103.9
CC1(C)CC(=O)c2sc(NC(=O)C3=COCCO3)nc2C1	70.2
CCOC(=O)C1=NN(c2ccc(C)cc2)C2c3cccc4cccc(c34)C12 (stereo unspecified)	93.6
COC(=O)C1=C(C)N(C(C)c2ccccc2)C(=O)/C1=C\c1ccco1 (stereo unspecified)	100.5
CCOc1ccc2c(c1)-c1c(ssc1=S)C(C)(C)N2C	99.6
COc1ccc2c(=O)c(Oc3cc(C)ccc3C)coc2c1	100.5
O=C1N=C(O)CN1/N=C/c1ccc(-c2ccc([N+](=O)[O-])cc2)o1	99.2
N#Cc1ccc(N2C(=O)c3ccccc3C2=O)cc1	99.2
CN(C(=O)CCCOc1ccc(Cl)cc1Cl)C1CCCCC1	100.8
Cc1cccc(C)c1NC(=S)N1CC(C)OC(C)C1 (stereo unspecified)	99.3
COc1ccc2nc(NC(=O)CN(C)S(=O)(=O)c3cccs3)sc2c1	100.4
CC1(C)CCc2cc(C3SCCS3)ccc2O1	100.9
O=S(=O)(Cc1ccco1)Cc1nc(-c2ccc(-c3ccccc3)cc2)cs1	100.4
Cc1ccc(-c2nc(C(=O)Nc3ccc(Cl)cc3)c3n2CCCCC3)cc1	95.1
CCNc1c2c3c(cccc3n(C)c1=O)C(=O)c1ccccc1-2	76.9
CN(C)c1ccc(/C=C(\C#N)S(C)(=O)=O)c(F)c1C#N	98.5
CCOc1ccc(C2C3=C(CCCC3=O)N(CC)C3=C2C(=O)CCC3)cc1	98.4
O=C(CCc1nc2ccccc2[nH]c1=O)OCc1ccc(Cl)cc1	96.8
O=C(CSc1ncnc2ccccc12)N1CCCC1	99.7
Cc1oc2c(cc(O)c3ccccc32)c1C(=O)O	96.5
COc1cc(OC)c2c(-c3ccccc3)cc(=O)oc2c1	101.0
CCN(CC)C(=O)CSc1cc(=O)n(CC)c2ccccc12	85.3
CCCCN1C(=O)C2ON(c3ccccc3)C(c3cccs3)C2C1=O (stereo unspecified)	89.1
O=C(COC(=O)c1ccc(Br)o1)Nc1c(Cl)cccc1Cl	101.9
CN(C(=O)c1cc2c(Cl)nc3ccccc3c2s1)C1CCCCC1	97.2
Cc1cc(C)n2nc(S(=O)(=O)NC3CCCCC3)nc2n1	100.0
Cn1nc(Cl)c(Cl)c1Oc1ccccc1	100.8
Cc1csc2sc(-c3ccnc(SCC(=O)c4ccccc4)n3)c(C)c12	99.5
O=C1CC2(CCCC2)C(=O)N1c1ccc(OC(F)(F)F)cc1	105.9
CC1CC(C)CN(C(=O)COC(=O)/C=C/c2ccco2)C1 (stereo unspecified)	104.0
CCN(CC)C(=O)CSc1nc2cc3c(cc2c(=O)n1Cc1ccc(OC)cc1)OCO3	94.6
N#Cc1c(-c2ccco2)cc(-c2cccs2)nc1OCc1ccc(F)cc1	89.0
N=c1c[n+](C2CCCCC2)[n-]o1	100.0
COc1ccc(CCNC(=O)C(Sc2ccc(Cl)cc2)c2ccccc2)cc1OC (stereo unspecified)	101.0
Cc1ccccc1NC(=O)C(C)(C)c1ccccc1	98.4
Cc1ccc(Nc2nc(Nc3ccc(C)cc3)nc(-n3sc(=S)nc3C)n2)cc1	100.0
CC(=O)NC1=NC(=O)C(C)S1 (stereo unspecified)	100.3
CC(C)(C)c1ccc(S(=O)(=O)CCSc2nc3c(cc2C#N)CCCC3)cc1	97.1
CN1CCC(N(C)CC(O)COCc2ccccc2F)CC1 (stereo unspecified)	97.5
CC(C)N(C(=O)C[n+]1ccsc1N)c1ccccc1	103.7
CCN1CCN(CC(O)COc2ccc(-c3ccccc3)cc2)CC1 (stereo unspecified)	95.7
CC(C)(C)CC(=O)Nc1nc2ccc(S(C)(=O)=O)cc2s1	100.3
C[C@H](c1ccccc1)N1C[C@@H](CO)OC1=O	101.3
CC(=O)N(c1ccc2oc3c(c2c1)CCCC3)S(=O)(=O)c1ccccc1	99.3
CCOC(=O)c1cc(-c2ccc(C)cc2)n(CCC(=O)NC2CCCCCC2)c1C	90.9
CCOC(=O)C1=C(CC)NC2=C(C(=O)CCC2)C1c1ccc(Cl)cc1 (stereo unspecified)	91.8

An excerpt; the hit share may differ from the screen's.
